# MgrA DNA FP – alters Staphylococcus aureus MgrA binding to DNA; 0.13% of 84,000 active; fluorescence polarization; inhibition, %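 (about 10 µg/mL by stock and volumes)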;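 active = above 50% in either of two replicates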;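 note: 0% = protein plus DNA without compound and 100% = DNA alone without protein; higher means less MgrA bound to DNA so lower polarization; one replicate is shown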
# Sa helicase inh – blocks Staphylococcus aureus DNA helicase; purified S. aureus helicase, fluorescence unwinding assay; about half of the hits fall short of the stated cut; inhibition, %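 (tested at about 80 µM)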; 0.05% of 120,000 active; AID 485395;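 active = both duplicates at 50% or more, or one of them with a favoured structure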;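 note: 0% = mean of negative control wells and 100% = mean of positive control wells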
# * marks the source's active call; other numbers are inactive results; . = not tested or not shown; & = joins results of further samples. Some of the compounds tested; the hit share may differ from the screen's.
SMILES,MgrA DNA FP,Sa helicase inh
COC(=O)c1sc(S(=O)(=O)Nc2ccc3cn[nH]c3c2)c(C(=O)OC)c1C,.,-4
COc1ccc(C(=O)C2CC2c2ccc(Cl)cc2)cc1 (stereo unspecified),-0.6,.
C=C1c2ccccc2C(=O)N1c1ccc(F)cc1,4.9,.
Cn1ccnc1SCCS(=O)(=O)c1ccc(Cl)cc1,-2.5,.
O=C(Nc1cccc(C(F)(F)F)c1)/C(=C\c1cccnc1)NC(=O)c1cccs1,-0.5,-22
COc1cccc(OCC(=O)Nc2ccc(F)cc2)c1,.,-10
N#Cc1cnc(-c2cnccn2)nc1N,-2.4,.
O=C(Nc1ccccc1C(=O)NCCCN1CCCC1)C1=CSCCO1,.,4
O=C(CSc1nc2ccccc2c(=O)[nH]1)c1ccc(-c2ccccc2)cc1,-1.8,.
O=C(Nc1ccccc1)Nc1csc(-c2ccc(C(F)(F)F)cc2)n1,-1.9,.

# Grouped by structure: the compounds so far containing a Cl atom
SMILES,MgrA DNA FP,Sa helicase inh
COc1ccc(C(=O)C2CC2c2ccc(Cl)cc2)cc1 (stereo unspecified),-0.6,.
Cn1ccnc1SCCS(=O)(=O)c1ccc(Cl)cc1,-2.5,.

# Other compounds
SMILES,MgrA DNA FP,Sa helicase inh
CCN(CC)CC(O)Cn1c(C)c(C)c2ccccc21 (stereo unspecified),.,9
N#CC1=C(N)SC2CSCC2=C1 (stereo unspecified),.,-66
CC(C)C1=NC(C(F)(F)F)(C(F)(F)F)NN1c1ccccc1,2.2,-4
CCCc1nc2ccccc2n1CC(=O)N(CC)C1CCCCC1,.,-5
CCCCOc1cc(C(=O)O)ccc1OC,-0.2,.
CCCN(CCC)C(=O)Nc1cn(CC(C)C)c(=O)c2ccccc12,.,14
CCn1ccnc1C(O)c1cc(OC)ccc1OC (stereo unspecified),.,8
Cc1ccccc1C(=O)NCC(=O)c1ccc(Cl)cc1,-1.5,.
N#Cc1nc2c(C#N)c3ccc4ccccc4n3c2nc1C#N,.,-234
OC(c1ccc(-c2ccccc2)[nH]1)C(F)(F)F (stereo unspecified),2.6,3
Cc1ccccc1CNC(=O)Cc1cccs1,.,2
CCc1ccc2[nH]c(C(=O)NCCc3ccccc3)cc2c1,-0.9,.
O=C1CC(c2ccco2)Sc2nc(-c3ccc(F)cc3)nn21 (stereo unspecified),.,8
Cc1c(CNC2CCC(C)CC2)c(C(=O)O)c(C)n1Cc1ccccc1 (stereo unspecified),.,10
Cc1noc(C)c1Cn1nnc(-c2cccc(C(F)(F)F)c2)n1,.,15
Cc1csc2ncc(C(=O)N(C)c3ccccc3)c(=O)n12,0.5,15
CC(=O)SC(C)CC(=O)Nc1ccccc1 (stereo unspecified),4.3,0
O=C(CCc1ccccc1)Nc1nn2c(-c3ccccc3)nnc2s1,4.9,7
O=C(OCC(=O)N1CCc2ccccc2C1)c1cccnc1Cl,1.0,-16
CCC1=C(C)/C(=C\c2[nH]c(C)c(CC)c2C)N=C1C,24,-119
O=C(NCc1ccco1)c1ccccc1N(Cc1ccccc1)S(=O)(=O)c1ccccc1,0.0,-12
O=S(=O)(c1ccc(F)cc1)N(Cc1ccc2c(c1)OCO2)S(=O)(=O)c1ccc(F)c(F)c1,.,32
O=C(O)CCN1Cc2ccccc2C1=O,13,-1
Cc1cc(/C=C2\C(=O)NC(=S)N(c3ccccc3)C2=O)c(C)n1-c1cccc([N+](=O)[O-])c1,12,.
COc1ccc(NC(=O)CCN2CCN(S(=O)(=O)c3cc(Cl)ccc3OC)CC2)cc1,.,2
N#CCCN/N=C/c1ccc2c(c1)OCO2,-1.9,.
O=C(c1ccccc1C(F)(F)F)N1CCc2ccccc21,.,19
O=C(O)c1ccccc1OCCOc1ccccc1C(=O)O,-1.9,9
Cc1ccc(C(=O)O)cc1NC(=O)c1ccco1,3.2,-11
CN1CCN(c2ccccc2/C=N/NC(=O)c2cccnc2)CC1,.,-17
O=C1NC(=S)N/C1=C/c1cc(Br)c(Oc2ccc(C(F)(F)F)cc2[N+](=O)[O-])c(Br)c1,-2.6,.
CC(C)(C)c1cc(-c2csc(-c3ccno3)n2)cc(C(C)(C)C)c1O,-2.2,.
NNC(=O)C1CCN(Cc2cccnc2)CC1,-1.8,.
Cc1cc(C)n(-c2ccc(C(=O)OCc3nc4ccccc4[nH]3)cc2)n1,.,-3
CCOC(=O)C1CCCN(C(=O)CCCN2C(=O)CSc3ncccc32)C1 (stereo unspecified),.,23
Cc1cccnc1NC(=S)Nc1ccccc1Cl,1.4,.
Cc1ccc(S(=O)(=O)Nc2cc(C(=O)NCC3CCCO3)ccc2N2CCCCC2)cc1 (stereo unspecified),.,9
CCN1C(=O)/C(=C/c2c(-c3ccccc3)[nH][nH]c2=O)C(=O)c2ccccc21,-2.2,1
CCOc1cc(CN2CCN(c3cccc(C(F)(F)F)c3)CC2)ccc1OC,-3.5,-1
CC1(c2ccccc2)NC(=O)NC1=O (stereo unspecified),.,-23
COc1cc(/C=C2\N=C(c3ccc(Cl)c([N+](=O)[O-])c3)OC2=O)cc(Br)c1OC(C)=O,0.6,.
CC(=O)N1CC(C)Oc2ccc(S(=O)(=O)Nc3ccc(Cl)cn3)cc21 (stereo unspecified),.,-25
O=C(COC(=O)c1ccc2c(c1)S(=O)(=O)N=C1CCCCCN12)Nc1cccc2nsnc12,.,16
CCOC(=O)Cn1c(=O)n(Cc2ccccc2Cl)c(=O)c2cccnc21,.,-11
CN(C)S(=O)(=O)c1ccc2c(c1)nc(CCC(=O)Nc1ccc3c(c1)OCO3)n2C,.,8
CCOC(=O)c1[nH]c2ccccc2c1NC=O,-1.8,14
C=CCn1c(-c2ccc3ncccc3c2)n[nH]c1=S,-0.2,.
O=C(O)CC1CCS(=O)(=O)C1 (stereo unspecified),-2.6,0
Cc1cc(C)c(NC(=O)CSC2=NN3CCCC(=O)N=C3S2)c(C)c1,.,-43
CN(C)c1ccc(CNC23CN4CN(CN(C4)C2)C3)cc1,-1.1,14
# (listing goes on)
SMILES,MgrA DNA FP,Sa helicase inh
Cc1cccc(OC(C)C(=O)NN)c1C (stereo unspecified),.,-8
COc1ccc(CNCc2ccc(F)cc2)cc1,-1.1,8
CC(=O)Nc1ccc(/C=N/NC(=O)N/N=C/c2ccc(NC(C)=O)cc2)cc1,-1.8,.
O=C(CNS(=O)(=O)c1ccc(Cl)cc1)NC1CCCC1,-0.4,-2
O=C(Nn1c(-c2ccc(Br)cc2)nc2ccccc2c1=O)c1ccc(Cl)c([N+](=O)[O-])c1,-1.3,.
CC(C)(C)OC(=O)NC1CCN(S(=O)(=O)c2cccc(S(=O)(=O)N3CCOCC3)c2)CC1,.,-23
O=[N+]([O-])c1ccc(Sc2ncc3ccccn23)nc1,-2.9,.
NC(=O)C1CCN(S(=O)(=O)c2cc(Cl)sc2Cl)CC1,-1.4,.
O=C(c1ccc(COc2ccccc2Br)cc1)N1CCc2ccccc2C1,-2.0,0
Cc1oc2ncn(CC(C)C)c(=O)c2c1NC(=O)NC1CCCCC1,.,-30

# Given tab-delimited: entries from further up
molecule	MgrA DNA FP	Sa helicase inh
NNC(=O)C1CCN(Cc2cccnc2)CC1	-1.8	.
Cc1cc(C)n(-c2ccc(C(=O)OCc3nc4ccccc4[nH]3)cc2)n1	.	-3
CCOC(=O)C1CCCN(C(=O)CCCN2C(=O)CSc3ncccc32)C1 (stereo unspecified)	.	23
Cc1cccnc1NC(=S)Nc1ccccc1Cl	1.4	.

# Additional results follow.
SMILES,MgrA DNA FP,Sa helicase inh
COC(=O)C(O)(CC(=O)Nc1ccc(C)c(F)c1)C(F)(F)F (stereo unspecified),0.7,-10
Cc1ccc(C2CC(=O)C(C=NCCN3CCN(CC(=O)Nc4cc(C)cc(C)c4)CC3)=C(O)C2)cc1 (stereo unspecified),.,-46
O=C(NC1CCCCC1)C(=S)N1CCCC1,1.6,4
O=C1CN(C(=O)/C=C/c2cccs2)c2ccccc2N1,.,-27
CCOC(=O)/C=c1\[nH]c(=O)/c(=C\c2ccc(C)s2)s1,.,-20
CCCC1c2cccn2CCN1C(=O)NC1CCCCC1 (stereo unspecified),.,1
O=C(OCc1ncc(-c2ccccc2)o1)C12CC3CC(CC(C3)C1)C2,.,-16
CC(C)(C)c1ccc(C2=NC(=O)C(CC(=O)O)S2)cc1 (stereo unspecified),23,.
S=c1nc2[nH]c(=S)[nH]c(=S)c2c(-c2ccco2)[nH]1,44,-17
CC1CC(C)(C)NC(=S)N1CC(=O)N1CCC(Cc2ccccc2)CC1 (stereo unspecified),-1.6,6
Clc1ccc(NC2CCCCC2)nn1,-1.7,16
CN(C)c1ccc(CNc2nc3ccccc3n2C)cc1,-1.4,-15
O=C(CCOc1ccccc1)Nc1ccc(O)c(-c2nc3ccccc3s2)c1,.,-9
ON=C1CCC2CC1CC/C2=N\O,.,7
CCCCNC(=O)NC1Cc2ccccc2C1,-2.8,.
Cc1cc(C)nc(NS(=O)(=O)c2ccc(NC(=O)c3ccc(F)cc3)cc2)n1,2.0,.
CCOC(=O)c1ccc(NC(=O)c2ccc(=O)[nH]c2)cc1,.,1
O=C(CN(Cc1ccccc1)C(=O)Cn1nnc(-c2ccc(F)cc2)n1)NC1CCCC1,-0.6,15
CCOC(=O)c1c(CNc2cccc(C(N)=O)c2)n(C)c2cc(Br)c(OC(C)=O)cc12,-1.8,5
Cn1c(SCCCn2c(=O)[nH]c3ccccc32)nnc1C(F)(F)F,.,19
CSC1=C(C#N)C(c2ccc(C(C)C)cc2)CC(=O)N1 (stereo unspecified),-0.7,-1
CN(C)C(=S)Nc1ccccc1N1CCOCC1,14,11
CCOC(=O)c1ccc(S(=O)(=O)N2CCN(Cn3cnc4ccccc43)CC2)cc1,.,18
CCc1n[nH]c(=S)n1/N=C/c1ccsc1,.,-23
O=c1c2cnn(-c3ccccc3)c2ncn1/N=C/c1ccncc1,.,6
COc1ccc(C2=NN(CC(=O)NCC3CCCO3)C(=O)CC2)cc1 (stereo unspecified),0.8,4
COc1cccc(NC(=O)COC(=O)c2cccc(S(=O)(=O)N(C)C)c2)c1,.,-9
N#CCC1NCCc2ccccc21 (stereo unspecified),.,13
CC1(C)CC(=O)C2=C(C1)OC1=C(C(=O)CC(C)(C)C1)C2c1ccc(OCc2c(F)cccc2Cl)cc1,-0.6,.
COc1ccc(I)cc1S(=O)(=O)NCc1ccccn1,.,-26

# Structures shown so far with a tert-butyl group:
SMILES,MgrA DNA FP,Sa helicase inh
CC(C)(C)c1cc(-c2csc(-c3ccno3)n2)cc(C(C)(C)C)c1O,-2.2,.
CC(C)(C)OC(=O)NC1CCN(S(=O)(=O)c2cccc(S(=O)(=O)N3CCOCC3)c2)CC1,.,-23
CC(C)(C)c1ccc(C2=NC(=O)C(CC(=O)O)S2)cc1 (stereo unspecified),23,.

# (listing goes on)
SMILES,MgrA DNA FP,Sa helicase inh
O=C(c1ccc2ncsc2c1)N1CCCCC1,.,-11
c1ccc(CSc2nnc(-c3cnccn3)s2)cc1,-1.6,.
O=C(O)c1cn[nH]c1-c1ccccc1,.,11
COc1ccc(-c2cc(C(F)(F)F)n3nc(C(=O)Nc4ccc(OC)cc4OC)cc3n2)cc1,-1.4,.
Cc1ccc(C2=NC(C(F)(F)F)(C(F)(F)F)N=C3SCCN32)cc1,-1.9,11
O=C(CSc1ncccc1C(=O)O)Nc1cc(Cl)cc(Cl)c1,4.7,.
CN(C)C(=O)COC(=O)c1ccccc1Oc1ccccc1,.,-9
COc1ccc(O)c(-c2cc(C(F)(F)C(F)F)nc(-c3ccccc3)n2)c1,.,10
COC(=O)c1ccsc1N1C(=O)C=CC1=O,.,11
CC(C)(C)C(=O)NCCCc1nc2ccccc2[nH]1,.,13&0
O=C(c1ccc(O)cc1)c1ccc(O)cc1O,.,-43
Clc1ccc(C2Nc3ccc4ccccc4c3C3C=CCC32)c(Cl)c1 (stereo unspecified),-1.3,.
Cn1ncc2c(N3CCCC3CO)ncnc21 (stereo unspecified),.,-3
CCN1C(=O)/C(=c2\sc3n(c2=O)C(c2cccs2)C(C(=O)OC)=C(C)N=3)c2ccccc21 (stereo unspecified),3.9,.
COc1ccc(/C=C2\Sc3ccc(C(=O)N4CCOCC4)cc3N(C)C2=O)cc1,.,34
CCC(CO)N=Cc1c(O)n(-c2ccccc2F)c(=O)c2ccccc12 (stereo unspecified),1.3,-18
CCCCN(CC)C(=O)Cn1nc(CC)n2c(cc3sccc32)c1=O,.,-15
O=C(O)c1ccc(NC(=O)C2CC(=O)N(Cc3ccc4c(c3)OCO4)C(=Nc3ccc(Cl)cc3)S2)cc1 (stereo unspecified),-0.6,.
CCOc1cccc2c1CCNC2=O,.,12
CCOC(=O)C(C(O)c1ccccc1)N1CCN(S(=O)(=O)c2ccc(C)cc2)CC1 (stereo unspecified),.,-7

# Some of these compounds in order of number of heavy atoms, ascending.
SMILES,MgrA DNA FP,Sa helicase inh
O=C(c1ccc(O)cc1)c1ccc(O)cc1O,.,-43
Clc1ccc(C2Nc3ccc4ccccc4c3C3C=CCC32)c(Cl)c1 (stereo unspecified),-1.3,.
CCC(CO)N=Cc1c(O)n(-c2ccccc2F)c(=O)c2ccccc12 (stereo unspecified),1.3,-18

# (next part)
SMILES,MgrA DNA FP,Sa helicase inh
Cn1c(=O)[nH]c(=O)c2c1ncn2Cc1ccc(F)cc1,-0.2,8
CC(NC(=O)c1ccc(C#N)cc1)C1CC2CCC1C2 (stereo unspecified),.,-5
CCOC(=O)C1CCN(C(=O)C2Cc3ccccc3N2C(=O)OCc2ccccc2)CC1 (stereo unspecified),-2.0,.
CCOc1ccc(-c2c(C#N)c(N)nc(SCC(=O)OCc3ccccc3)c2C#N)cc1,-3.7,.
N#CCC(=O)NCCc1ccccn1,2.1,.
CCN1CCc2c(sc(=NC(=O)c3ccc(F)cc3)n2C(=O)c2ccc(F)cc2)C1,.,12
